From PubChem
DUX4 txn inh = blocks DUX4-driven transcriptional activation; 293T-iDUX4 ZSCAN4-Gaussia luciferase reporter, 24 h; active compounds read low; activity change, negative = inhibition, % (concentration not given with the values); 0.8% of 37,000 active; AID 1224904;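 active means -10% or lower and over 25 points stronger than a control reporter; inconclusive means -10% or lower with a smaller gap; inactive means above -10%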;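 further: 0% = median of neutral control wells and -100% = median of positive control wells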
DUX4 txn inh difference = second read-out of DUX4 txn inh, no call of its own (marks repeat the call); Gaussia minus Italica difference, %; measured here: selective DUX4 reporter inhibition;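 worked out from the two reporters; negative = selective loss of the DUX4 reporter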
DUX4 txn inh control = second read-out of DUX4 txn inh, no call of its own (marks repeat the call); activity change, negative = inhibition, %; measured here: Italica tet-on control reporter;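 0 = neutral control and -100 = positive control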
* hit, by the source's call; ? = inconclusive; . = not tested or not shown; & = joins results of further samples. Some of the compounds tested. The share of hits here may be higher or lower than overall.

SMILES | DUX4 txn inh | DUX4 txn inh difference | DUX4 txn inh control
O=C(C[C@H]1C[C@H]2c3cc(NC(=O)C4CCOCC4)ccc3O[C@H]2[C@@H](CO)O1)NCc1ccc(Oc2ccccc2)cc1 | 10 | 7 | 3.1
Cc1ccccc1CN(C)C[C@H]1OCc2cnnn2CCCC(=O)N([C@H](C)CO)C[C@H]1C | -6 | -5 | -0.2
O=C(C[C@@H]1CC[C@@H]2[C@H](COC[C@H](O)CN2Cc2ccccc2F)O1)N[C@@H]1CCN(Cc2ccccc2)C1 | -6 | -1 | -4.9
COc1ccc2c3c([nH]c2c1)[C@@H](CO)N(S(C)(=O)=O)CC31CN(C(=O)c2ccccc2)C1 | 3 | -3 | 6.2
O=C(NC1CCCC1)N1CC(=O)N2[C@@H](CO)[C@H](c3ccc(/C=C/c4ccccc4)cc3)[C@@H]2C1 | -3 | -5 | 2.1
C/C=C/c1cccc(-c2nc(C(=O)NCc3ccc(OC)cc3)cc3c2[C@H](CCO)N([S@@](=O)C(C)(C)C)C3)c1 | 3 | 3 | 0.4
CO[C@@H]1CN(C)C(=O)c2ccc(NC(=O)Nc3cccc(Cl)c3)cc2OC[C@H](C)NC[C@H]1C | -10&-7 | -5&-2 | -4.5&-4.8
CN1c2ccc(-c3ccccc3)cc2[C@@H]2[C@@H](CCN2C(=O)Cc2ccccc2)[C@H]1CO | 0 | 1 | -0.8
CO[C@@H]1CN(C)C(=O)c2cc(NC(=O)NC(C)C)ccc2OC[C@H](C)N(C(=O)C2CCC2)C[C@@H]1C | 3 | -1 | 4.3
C[C@H]1CN([C@@H](C)CO)C(=O)c2ccccc2-c2ccccc2CO[C@@H]1CN(C)S(=O)(=O)c1ccc(C(F)(F)F)cc1 | -1 | -6 | 5.5
C[C@@H]1CN([C@H](C)CO)C(=O)c2cc(NC(=O)Cc3ccccc3)ccc2O[C@@H]1CN(C)S(C)(=O)=O | 2 | 3 | -1.1
O=C(C[C@H]1CC[C@@H](NC(=O)Nc2ccccc2F)[C@@H](CO)O1)NCc1ccc(Cl)cc1 | 1 | 9 | -7.7
C[C@@H]1CN([C@H](C)CO)C(=O)Cc2cc(NS(=O)(=O)c3cn(C)cn3)ccc2O[C@@H]1CN(C)C(=O)NC1CCCCC1 | -7 | -5 | -2.1
COC(=O)C[C@@H]1CC[C@H]2[C@@H](COc3ccc(NC(=O)c4cnccn4)cc3C(=O)N2C)O1 | 4 | 1 | 2.5
COc1ccccc1NC(=O)N[C@H]1C=C[C@H](CC(=O)N[C@@H](C)c2ccccc2)O[C@H]1CO | -2 | -1 | -1.1
C[C@@H]1CN([C@@H](C)CO)C(=O)c2cccc(NC(=O)C3CCCCC3)c2O[C@H]1CN(C)Cc1ccc(C(=O)Nc2ccccc2N)cc1 | -6 | -1 | -4.8
C[C@@H]1CN([C@H](C)CO)C(=O)Cc2cc(NC(=O)CCCCCC(=O)Nc3ccccc3N)ccc2O[C@H]1CN(C)S(=O)(=O)c1cccs1 | -5 | -3 | -2.3
COc1cccc(S(=O)(=O)N2C[C@H](O)COC[C@H]3O[C@H](CC(=O)N4CCN(C)CC4)CC[C@@H]32)c1 | 15 | 11 | 4.4
N#C[C@@H]1[C@@H](c2ccc(-c3ccncc3)cc2)[C@@H](CO)N1C(=O)C1CCOCC1 | -1 | -1 | 0.1
C[C@@H]1CN([C@@H](C)CO)C(=O)c2c(c3ccccc3n2C)-c2ccccc2CO[C@@H]1CN(C)C(=O)Nc1ccccc1C(F)(F)F | -2 | 1 | -2.9
O=C(c1ccccn1)N1CC2(C1)[C@H](c1ccccc1)[C@@H](CO)N2C(=O)C1CCCCC1 | 8 | 6 | 1.7
COc1ccc(C#Cc2ccc([C@H]3[C@@H](CO)N4C(=O)CN(C(=O)c5ccncc5)C[C@@H]34)cc2)cc1 | 0 | 3 | -3.1
CN1c2ccc(Br)cc2[C@@H]2[C@@H](CCN2S(=O)(=O)c2ccc(F)cc2)[C@H]1CO | 15 | 9 | 6.5
O=C(C[C@@H]1CC[C@H]2[C@@H](COC[C@@H](O)CN2C(=O)Cc2ccccc2)O1)NC1CCCC1 | 17 | 11 | 6.0
C[C@H](CO)N1C[C@H](C)[C@@H](CN(C)C(=O)Nc2ccc3c(c2)OCO3)OCCCC[C@H](C)Oc2ccc(NC(=O)C3CCCCC3)cc2C1=O | -1 | -6 | 4.7
SMILES | DUX4 txn inh | DUX4 txn inh difference | DUX4 txn inh control
O=C(C[C@@H]1CC[C@H]2[C@@H](COC[C@H](O)CN2Cc2cccc(F)c2)O1)NCCc1ccncc1 | 3 | 1 | 1.7
C[C@@H]1CN([C@H](C)CO)C(=O)c2cccc(NC(=O)C3CCCCC3)c2O[C@H]1CN(C)C(=O)Nc1ccc(F)cc1 | -2 | -2 | -0.3
C[C@H](CO)N1C[C@H](C)[C@@H](CN(C)C(=O)N[C@H](C)c2ccccc2)OCc2ccccc2-c2c(n(C)c3ccccc23)C1=O | -1 | -6 | 5.3
CC(=O)N1[C@@H](CO)[C@@H](c2ccccc2)C12CN(C(=O)c1ccccc1)C2 | 8 | -2 | 10.0
COCCN(C[C@H]1[C@H](c2ccccc2)[C@@H](CO)N1C(=O)C1CC1)C(C)=O | 0 | -1 | 1.2
O=C(c1ccncc1)N1CC(=O)N2[C@H](C1)[C@H](c1ccc(-c3ccccc3F)cc1)[C@@H]2CO | 7 | 2 | 5.3
CCS(=O)(=O)N1CC2(C1)[C@H](c1ccccc1)[C@@H](CO)N2Cc1ccccn1 | -3 | -5 | 2.5
COc1cccc(NC(=O)Nc2ccc3c(c2)C(=O)N(C)C[C@@H](OC)[C@H](C)CN(CC2CC2)[C@@H](C)CO3)c1 | ? | . | .
Cc1ccccc1S(=O)(=O)N1CC[C@@H]2[C@H](CO)Nc3ccc(-c4cccc(C#N)c4)cc3[C@@H]21 | ? | . | .
COc1ccc2c3c(n(C)c2c1)[C@H](CO)N(Cc1cccnc1)CC31CCN(C(=O)NC(C)C)CC1 | 3 | -5 | 7.9
CN(C)CC#Cc1ccc([C@@H]2[C@H]3CN(C(=O)CN(C)C)CCCCN3[C@H]2CO)cc1 | 35 | 5 | 30
N#C[C@@H]1[C@@H](c2ccccc2-c2ccc(F)cc2)[C@H](CO)N1C(=O)NC1CCCCC1 | ? | . | .
Cc1noc(C)c1NC(=O)N(C)C[C@@H]1OCCCC[C@@H](C)Oc2ccc(NC(=O)Nc3cccc4ccccc34)cc2C(=O)N([C@H](C)CO)C[C@@H]1C | -1 | 3 | -3.7
O=C(C[C@H]1CC[C@@H]2[C@H](COC[C@@H](O)CN2Cc2cccc(C(F)(F)F)c2)O1)NCc1ccc(F)cc1 | ? | . | .
O=C(C[C@H]1CC[C@@H](NC(=O)Nc2cc(F)ccc2F)[C@@H](CO)O1)Nc1ccc(-c2ccccc2)cc1 | ? | . | .
CO[C@H]1CN(C)C(=O)c2cc(NC(=O)C3CC3)ccc2OC[C@H](C)N(C(=O)c2ccccn2)C[C@@H]1C | 0 | -2 | 1.8
CN(C[C@H]1N[C@@H](CO)[C@H]1c1ccc(-c2cccc(F)c2)cc1)C(=O)CC1CC1 | 2 | -2 | 4.1
CNC(=O)C[C@H]1CC[C@H]2[C@@H](COc3ccc(NC(=O)Nc4ccc(F)c(F)c4)cc3C(=O)N2C)O1 | -2 | 1 | -2.4
COc1ccccc1CNC(=O)C[C@H]1C[C@H]2c3cc(NC(=O)CN(C)C)ccc3O[C@H]2[C@@H](CO)O1 | -2 | -5 | 3.0
CC(=O)Nc1ccc2c(c1)C(=O)N(C)[C@H]1CC[C@@H](CC(=O)NCc3ccc(Cl)cc3)O[C@@H]1CO2 | 5 | 5 | 0.7
COc1ccc2c3c(n(C)c2c1)[C@@H](CO)N(C(=O)NC1CCCCC1)CC31CCN(C)CC1 | 1 | -11 | 12
CN1c2ccc(-c3cccc(F)c3)cc2[C@H]2[C@H](CCN2C(=O)c2ccc3c(c2)OCO3)[C@@H]1CO | ? | . | .
COc1ccc2c3c(n(C)c2c1)[C@H](CO)N(C(=O)Nc1ccc(F)cc1)CC31CN(Cc2ccccc2F)C1 | ? | . | .
CN(C)C(=O)C[C@H]1C[C@@H]2c3cc(NC(=O)C4CCOCC4)ccc3O[C@@H]2[C@@H](CO)O1 | 10 | 7 | 3.1
CNC[C@H]1OCCCC[C@@H](C)Oc2ccc(NC(=O)Nc3ccc(OC)cc3)cc2C(=O)N([C@H](C)CO)C[C@@H]1C | -4 | -6 | 2.0

Random excerpt: two compounds from above
SMILES | DUX4 txn inh | DUX4 txn inh difference | DUX4 txn inh control
O=C(C[C@H]1CC[C@@H]2[C@H](COC[C@@H](O)CN2Cc2cccc(C(F)(F)F)c2)O1)NCc1ccc(F)cc1 | ? | . | .
CCS(=O)(=O)N1CC2(C1)[C@H](c1ccccc1)[C@@H](CO)N2Cc1ccccn1 | -3 | -5 | 2.5

(further entries)
SMILES | DUX4 txn inh | DUX4 txn inh difference | DUX4 txn inh control
CCCC#Cc1ccc([C@@H]2[C@@H](CO)N3C(=O)CN(C(=O)c4cccc(F)c4)C[C@@H]23)cc1 | -4 | -12 | 7.9
Cc1noc(C)c1S(=O)(=O)Nc1ccc2c(c1)C(=O)N([C@@H](C)CO)C[C@@H](C)[C@H](CN(C)C(=O)Nc1cccc3ccccc13)OCCCC[C@H](C)O2 | 6 | 2 | 4.1
Cc1cccc(S(=O)(=O)N2CC[C@@H]3[C@H]2c2cc(-c4ccc(C#N)cc4)ccc2N(C)[C@H]3CO)c1 | 19 | 13 | 5.7
C[C@H](CO)N1C[C@H](C)[C@H](CN(C)Cc2ccccn2)Oc2ncc(C#CC(C)(C)O)cc2C1=O | -2 | -4 | 2.1
CN1[C@@H]2c3ccc(-c4cncnc4)c(=O)n3C[C@@H]2[C@@H](CO)[C@@H]1C(=O)NC1Cc2ccccc2C1 | -10 | -2 | -8.1
COc1ccc2c3c(n(C)c2c1)[C@@H](CO)N(C(=O)Nc1ccc(F)cc1)CC31CN(C(=O)c2cccnc2)C1 | ? | . | .
C[C@@H]1CN([C@H](C)CO)C(=O)c2cc(NC(=O)Nc3ccccc3)ccc2O[C@@H]1CN(C)Cc1ccccc1 | -6 | -3 | -2.9
C[C@H]1CN([C@@H](C)CO)C(=O)c2cc(NS(=O)(=O)c3ccc(F)cc3)ccc2O[C@@H]1CN(C)Cc1ccc(Oc2ccccc2)cc1 | 1 | 4 | -2.4
C[C@H]1CN([C@@H](C)CO)C(=O)CCCn2nncc2CO[C@H]1CN(C)S(=O)(=O)c1cccc(C#N)c1 | -2 | -1 | -0.7
CN1C(=O)c2cc(NC(=O)c3ccc(F)c(F)c3)ccc2OC[C@H]2O[C@@H](CC(=O)N[C@H]3CCN(Cc4ccccc4)C3)CC[C@@H]21 | -4 | -4 | -0.7
CO[C@@H]1CN(C)C(=O)c2ccc(NC(=O)c3cccc(F)c3)cc2OC[C@H](C)NC[C@H]1C | -1 | -2 | 0.8
CN1c2ccc(-c3cccc(F)c3)cc2[C@@H]2[C@@H](CCN2C(=O)C2CCC2)[C@@H]1CO | 2 | -5 | 6.8
O=C(c1ccccc1F)N1CC(=O)N2[C@H](C1)[C@@H](c1ccc(C#Cc3ccccc3)cc1)[C@@H]2CO | ? | . | .
O=C(C1CCOCC1)N1CC[C@@H]2[C@@H](CO)Nc3ccc(-c4cccc(F)c4)cc3[C@@H]21 | 7 | 9 | -2.1
CCCN1CCC2(CC1)CN(Cc1ccc3c(c1)OCO3)[C@H](CO)c1[nH]c3cc(OC)ccc3c12 | ? | . | .
O=C(N[C@@H]1CC[C@@H](CCNC(=O)C2CCOCC2)O[C@H]1CO)c1ccccn1 | 2 | 2 | 0.3
COc1ccc(C#Cc2ccc3c(c2)[C@@H]2[C@@H](CCN2C(=O)c2cnccn2)[C@@H](CO)N3)cc1 | -7 | -10 | 3.4
CCC(=O)N1[C@H](CO)[C@H](c2ccccc2)[C@@H]1CNC(=O)CN1CCOCC1 | 2 | -3 | 4.6
C[C@@H]1CN([C@@H](C)CO)C(=O)c2cc(NC(=O)Cc3cn(C)c4ccccc34)ccc2O[C@H]1CN(C)C(=O)Nc1ccc(C(F)(F)F)cc1 | -2 | -4 | 1.4
CCN1[C@@H]2c3ccc(-c4cccc(F)c4)c(=O)n3C[C@@H]2[C@@H](CO)[C@@H]1C(=O)N[C@@H](C)c1ccccc1 | -5 | 7 | -12
Cc1cccc(S(=O)(=O)N2C[C@H]3[C@@H](c4ccccc42)[C@@H](CO)N3C(=O)C2CC2)c1 | 3 | 3 | -0.8
O=C(C[C@H]1CC[C@@H]2[C@H](COC[C@H](O)CN2Cc2ccc(Oc3ccccc3)cc2)O1)N1CCCCC1 | ? | . | .
C[C@@H]1CN([C@@H](C)CO)C(=O)c2c(c3ccccc3n2C)-c2ccccc2CO[C@@H]1CN(C)S(=O)(=O)c1ccc(Cl)cc1 | ? | . | .

Entries above that contain a cyano group (5):
SMILES | DUX4 txn inh | DUX4 txn inh difference | DUX4 txn inh control
N#C[C@@H]1[C@@H](c2ccc(-c3ccncc3)cc2)[C@@H](CO)N1C(=O)C1CCOCC1 | -1 | -1 | 0.1
Cc1ccccc1S(=O)(=O)N1CC[C@@H]2[C@H](CO)Nc3ccc(-c4cccc(C#N)c4)cc3[C@@H]21 | ? | . | .
N#C[C@@H]1[C@@H](c2ccccc2-c2ccc(F)cc2)[C@H](CO)N1C(=O)NC1CCCCC1 | ? | . | .
Cc1cccc(S(=O)(=O)N2CC[C@@H]3[C@H]2c2cc(-c4ccc(C#N)cc4)ccc2N(C)[C@H]3CO)c1 | 19 | 13 | 5.7
C[C@H]1CN([C@@H](C)CO)C(=O)CCCn2nncc2CO[C@H]1CN(C)S(=O)(=O)c1cccc(C#N)c1 | -2 | -1 | -0.7
